GCN5L2 inh: qHTS Assay for Inhibitors of GCN5L2 | Histone acetyltransferase KAT2A (Homo sapiens), Q92830 | GCN5L2 HAT assay, ThioGlo1 CoA-SH fluorescence | Potency, µM (series often up to 58.9 µM), inactives show top-dose activity change, negative = inhibition, hits mostly inhibitors | 390,000 tested, 0.21% active | AID 504327, 2011; active = well fitted inhibition curve with a large enough effect; inconclusive = small, poorly fitted or top-dose-only effect, or another doubt; inactive = no such curve, though single readings can be large or run the other way
Target sequence (Q92830 whole entry, looked up): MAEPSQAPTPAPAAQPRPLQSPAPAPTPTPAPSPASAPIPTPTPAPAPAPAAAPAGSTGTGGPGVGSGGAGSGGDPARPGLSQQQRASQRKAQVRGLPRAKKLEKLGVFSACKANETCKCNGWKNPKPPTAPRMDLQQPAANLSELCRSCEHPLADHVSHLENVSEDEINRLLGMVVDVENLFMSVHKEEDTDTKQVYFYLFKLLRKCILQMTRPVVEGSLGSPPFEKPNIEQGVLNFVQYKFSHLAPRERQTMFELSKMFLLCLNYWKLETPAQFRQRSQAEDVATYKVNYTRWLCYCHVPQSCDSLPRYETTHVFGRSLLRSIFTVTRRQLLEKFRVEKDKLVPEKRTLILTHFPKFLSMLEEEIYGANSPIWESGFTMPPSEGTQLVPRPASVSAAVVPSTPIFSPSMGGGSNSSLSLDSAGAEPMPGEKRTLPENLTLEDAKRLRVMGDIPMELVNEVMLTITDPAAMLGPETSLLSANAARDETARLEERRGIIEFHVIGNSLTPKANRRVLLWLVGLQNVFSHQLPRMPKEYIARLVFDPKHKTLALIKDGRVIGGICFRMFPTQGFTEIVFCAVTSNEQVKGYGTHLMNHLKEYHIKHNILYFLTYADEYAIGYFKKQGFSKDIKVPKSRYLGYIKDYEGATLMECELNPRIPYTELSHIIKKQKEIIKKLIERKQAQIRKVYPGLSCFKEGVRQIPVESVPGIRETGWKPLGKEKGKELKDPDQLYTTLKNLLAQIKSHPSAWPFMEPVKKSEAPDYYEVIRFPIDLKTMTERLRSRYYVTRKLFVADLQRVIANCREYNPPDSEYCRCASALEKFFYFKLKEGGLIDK
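Preincubate 20nM GCN5L2 with compound 15 min, RT → add 50uM ThioGlo1 + 75uM H3(1-25) + 70uM acetyl-CoA → read fluorescence 0 and 20 min. Primary qHTS; fluorescent artifacts likely.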
Numbers without * were called inactive; ? = inconclusive; & = joins results of further samples; [ ] = remark or other dose. % is set by controls: 0 for no effect and ±100 for the full control effect; potency is the fitted concentration of half-maximal effect.

| mol | GCN5L2 inh |
| --- | --- |
| COc1ccc(N2CCN(S(=O)(=O)c3ccc(-c4cnc(C5CC5)o4)cc3)CC2)cc1 | -1%&2% |
| CC1CC(C)(C)NC(=S)N1CCC(=O)NCc1ccc(Cl)cc1 (centres undefined) | 3% |
| Cc1ccc(C(NC(=O)N2CC(C)OC(C)C2)C(Cl)Cl)cc1F (centres undefined) | -6% |
| O=C(NCc1ccncc1)/C(=N/O)c1ccccc1 | -4% |
| COc1ccc(CNC(=O)CSCc2ccccc2Cl)cc1 | -4% |
| COc1ccc(OCc2n[nH]c(=S)o2)cc1 | -2% |
| CCN(CC)S(=O)(=O)c1cc(NC(=O)CN2C(=O)NC(C)(c3ccccc3)C2=O)ccc1C (centres undefined) | -6% |
| COc1ccccc1-c1cc(C(=O)NC(C)C)no1 | -10% |
| CCC(C)NC(=O)c1ccccc1NC(=O)/C(=C/c1ccc(OC)cc1)c1ccccc1 (centres undefined) | -12% |
| CCOc1ccc(OCC)c(NC(=O)CC(C)n2nc(C)cc2C)c1 (centres undefined) | 5% |
| Cn1c(=O)c2c(nc(Cl)n2Cc2ccc(Cl)c(Cl)c2)n(C)c1=O | -10% |
| CCN(CC)S(=O)(=O)c1ccc(OC)c(NC(=O)Cn2cnc3c2c(=O)n(C)c(=O)n3C)c1 | 2% |
| OCCN(CC#CC(O)(c1ccccc1)c1ccccc1)CCO | -4% |
| CCn1c(C(=O)NCCCN2CCc3ccccc3C2)cc2sccc21 | -19% |
| CC(C)c1ccc(CN2CC(C(=O)Nc3ccccc3)CC2=O)cc1 (centres undefined) | -1% |
| CC1CN(C(=O)c2c(Br)cnn2C)CC(C)O1 (centres undefined) | -3% |
| Cc1c2cnn(CC(=O)NCCCN3CC(C)CC(C)C3)c(=O)c2c(C)n1Cc1ccc(Cl)cc1 (centres undefined) | 2% |
| CCCCN(CC)C(=O)Cc1c(C(=O)O)[nH]c2ccc(Cl)cc12 | -5% |
| CC1(C)CC(NC(=O)c2cc(S(=O)(=O)N3CCCCC3)ccc2Cl)CC(C)(C)N1 | 2% |
| COc1ccc2oc(=O)c(NC(=O)C3CCCCC3)cc2c1 | -5% |
| CCOc1ccc(N2C(=O)CC(NCCNc3ccc(C(=O)c4cccs4)cc3)C2=O)cc1 (centres undefined) | -17% |
| Cc1cc(Cn2nc(-c3ccccc3)cc2C(=O)NCc2cccc(Br)c2)on1 | -27% |
| O=C(Nc1ccn(Cc2c(F)c(F)c(F)c(F)c2F)n1)c1cccc(Cn2cc([N+](=O)[O-])cn2)c1 | -3% |
| CCn1cc(C(=O)NCc2ccncc2)c(=O)c2cc(F)c(N3CCN(C(=O)c4ccco4)CC3)cc21 | -6% |
| CN1CCN(C(=S)c2ccc(Cl)cc2)CC1 | 1% |
| Cc1[nH]c(=S)c(C#N)c(-c2ccco2)c1C(=O)N(C)C | -11% |
| CCOc1ccc(S(=O)(=O)N2CCCC(C(=O)NC3CCCC3)C2)cc1 (centres undefined) | -4% |
| O=C(C1CC(=O)N(c2ccc3c(c2)OCCO3)C1)N1CCCC(C(F)(F)F)C1 (centres undefined) | 5% |
| COCCn1c(Cc2cccn2C)nnc1SCC(=O)Nc1nccs1 | -5% |
| COCCNC(=O)C(c1ccc(C)cc1)N(C(=O)CCC(=O)Nc1ccccn1)c1ccc(C)cc1 (centres undefined) | -4% |
| CN(CC(=O)Nc1ccc2c(c1)OCO2)CC(=O)Nc1ccc(F)c(F)c1F | -1% |
| COc1ccc2cc(-c3ccccc3)ncc2c1 | -7% |
| COc1ccc(-c2c(S(=O)(=O)c3ccccc3)cnn2-c2ccccc2)cc1 | -14% |
| COc1cc(O)c(C(CC(=O)N2CCCC2)c2ccc(N(C)C)cc2)c(OC)c1 (centres undefined) | -6% |
| COc1ccc(C2NC(=O)NC(C)=C2C(=O)OCc2ccccc2)cc1 (centres undefined) | 1% |
| O=C(Nc1ccc(O)c2c(=O)cc(-c3ccccc3Cl)oc12)c1ccccc1Cl | 8%&-3% |
| CNC(=O)CSc1nnc(SCCC(=O)O)s1 | -3% |
| CC(NS(=O)(=O)c1ccccc1)C(=O)Nc1ccc2c(c1)OCCO2 (centres undefined) | -6% |
| Cc1ccc(CNC(=O)CCC(=O)c2cccs2)cc1 | -6% |
| Clc1ccc(-c2cc(-c3ccccn3)on2)c(Cl)c1 | 1% |
| COc1cc(CNS(=O)(=O)c2ccc3c(c2)CC(C)N3C(=O)C2CCC2)cc(OC)c1OC (centres undefined) | -5% |
| CC(C)(C)OC(=O)N1CCCC1C(=O)NC(Cc1ccccc1)C(=O)O (centres undefined) | -3% |
| CCn1cc(/C=N\NC(=O)c2c[nH]c3ccccc23)c(C)n1 | -6% |
| CC(C)NC(=O)Cn1c(=O)nc(-c2ccccc2)c2ccccc21 | -3% |
| CC(C)n1c2ccccc2c2nnc(SCC(=O)OCN3C(=O)c4ccccc4C3=O)nc21 | -4% |
| FCCCOc1ccc(-c2ccnc(-c3ccccc3)n2)cc1 | 2% |
| CCCCN1C(=O)C(=O)N(CC(=O)Nc2ccccc2C(C)=O)C1=O | -2% |
| O=C(Nc1ccc(S(=O)(=O)Nc2cnc3ccccc3n2)cc1)c1ccc([N+](=O)[O-])cc1Cl | -4% |
| CCCOC1CCCN(C(=O)CCc2nnc(CCCCc3ccccc3)o2)C1 (centres undefined) | -10% |
| CCN(CC(=O)Nc1ccc(OC)cc1)C(=O)c1cc(S(=O)(=O)N2CCOCC2)ccc1N1CCCC1 | -7% |
| CCOC(=O)c1cn(Cc2ccc(C)cc2)nn1 | 2% |
| CC1CCCCN1C(=S)NCCc1ccccc1 (centres undefined) | 0% |
| C=CCOc1c(Br)cc(CNn2c(C)n[nH]c2=S)cc1OCC | 3% |
| COCCNC(=O)NC(=O)COC(=O)C1(c2ccc(Cl)cc2)CC1 | 0% |
| CC1(C)CC(NC(=O)C23CCC(C)(C(=O)C2)C3(C)C)CC(C)(C)N1 (centres undefined) | 4% |
| COc1ccc(/C=C2\CCC(C3CCCC3)C2=O)cc1Cn1nc(C)cc1C (centres undefined) | 3% |
| O=C(Nc1ccc([N+](=O)[O-])cc1)c1cncc(Br)c1 | 2% |
| COc1ccc(N2CCN(C3CCCN(C(=O)c4cccc(C)n4)C3)CC2)cc1 (centres undefined) | ? |
| O=C(NCCCN1CCCC1=O)c1ccc2c(c1)NC(=O)c1ccccc1S2 | -3% |
| CC(=O)Oc1c(C)c(C)c2c(c1C)CC[C@@](C)(CCC[C@H](C)CCC[C@H](C)CCCC(C)C)O2 | -12%&33% |

More compounds follow.
| mol | GCN5L2 inh |
| --- | --- |
| Cc1ccc([N+](=O)[O-])cc1NC(=O)C1CCN(S(C)(=O)=O)CC1 | -1% |
| CC/C=C(/NC(C)=O)c1ccccc1 | 0% |
| CCN(C[C@H]1N[C@@](C)(C(=O)OC)[C@H]2C(=O)N(C)C(=O)[C@@H]12)C(=O)Nc1ccc(F)cc1 | 1% |
| COc1cccc(C(=O)Nc2nc(-c3ccc(Br)cc3)ns2)c1 | -4% |
| CC1CCCCN1c1c(S(=O)(=O)c2ccc(Cl)cc2)cnc2ccccc12 (centres undefined) | -12% |
| O=C1c2ccccc2C(=O)N1CCc1nc(-c2ccncc2)no1 | -8% |
| O=C1CN(C(=O)COC(=O)c2cccc(Br)c2)c2ccccc2N1 | -6% |
| Cc1sc2nc(SCC(=O)O)[nH]c(=O)c2c1C | -4% |
| CC1(C)CC(CC(=O)O)(c2ccc(F)cc2)CCO1 (centres undefined) | -1% |
| C=C(C)Cn1cnc2c(oc3nc4c(cc32)CCCC4)c1=O | -2% |
| COC(=O)Cc1ccc(NC(=S)NCc2ccc(F)cc2)cc1 | 5% |
| CCCSc1ncc(Cl)c(C(=O)Nc2nc3ccc(OCC)cc3s2)n1 | -1% |
| COc1cc(NC2c3ccccc3C(=O)N2c2ccc(C)cn2)cc(OC)c1OC (centres undefined) | -3% |
| CN(CC(=O)Nc1ccccc1Cl)C(=O)Cn1cc(C(F)(F)F)ccc1=O | 4% |
| COc1ccc(Nc2nnc(C)c3ccccc23)cc1C(N)=O | 0% |
| CC1CCC(NC(=O)Cn2ncc3c4ccccc4n(Cc4ccc(Cl)cc4)c3c2=O)CC1 (centres undefined) | -10% |
| O=C(CCn1c(=O)c2cccn2c2cccnc21)Nc1ccccc1C(F)(F)F | -2% |
| CC(=O)c1c(C)[nH]c(C(=O)OCC(=O)Nc2cc(Cl)ccc2[N+](=O)[O-])c1C | -9% |
| Cn1c2c(c(=O)c3ccccc31)CCC(C)(C)O2 | 0% |
| CC(CNC(=O)CN1C(=O)COc2ccc(S(=O)(=O)N3CCCCCC3)cc21)c1ccccc1 (centres undefined) | -3% |
| O=C(CCn1cccc1)NCc1ccccc1 | -4% |
| O=C(Cn1c(=O)n(-c2ccccc2)c(=O)c2oc3ccccc3c21)Nc1ccccc1 | 1% |
| Nc1nc(-c2ccc(Cl)cc2)nnc1-c1ccc(Br)cc1 | ? |
| COc1ccc(C)cc1-n1nnc(-c2nc(-c3ccccc3Cl)no2)c1N | -10% |
| O=C(COc1ccccc1[N+](=O)[O-])N1CCN(S(=O)(=O)c2ccccc2)CC1 | -14% |
| Clc1ccc(C(c2nnnn2C2CCCCC2)N(Cc2cccnc2)Cc2ccco2)cc1 (centres undefined) | -14% |
| O=C(N/N=C/C=C/c1ccc(Br)cc1)C(O)c1ccccc1 (centres undefined) | -3% |
| N#CCn1nnc(-c2ccc3c(c2)OCO3)n1 | -4% |
| COc1ccc(CCNC(=O)c2ccc3c(c2)OCO3)cc1 | 0% |
| Cc1c(C#N)c2ccccc2n1CC(=O)NCCc1c[nH]c2ccccc12 | -1% |
| Cc1ccc(C)c(N2CCN(C(=O)Cn3ncc4c(=O)oc5ccc(C)cc5c43)CC2)c1 | -4% |
| CCC(=O)N1CCc2cc(CNS(=O)(=O)c3cc(Cl)ccc3OC)ccc21 | -14% |
| CC1=C(C)CC(C(=O)NC2CCN(C(C)C)CC2)C(C(=O)O)C1 (centres undefined) | -4% |
| CN(C)c1c([N+](=O)[O-])ncn1C | -10% |
| O=C(Nc1ccc(C(F)(F)F)cc1)C1CCCN(S(=O)(=O)c2cccc3cccnc23)C1 (centres undefined) | -2% |
| FC(F)Oc1ccc(NC(=S)NC2CCSc3ccccc32)cc1 (centres undefined) | -20% |
| CCOC(=O)C1=CN(Cc2cccc(F)c2)S(=O)(=O)NC1c1ccc2ccccc2c1 (centres undefined) | -15% |
| Cc1cccc(NC(=O)CSc2nc3c(sc4ccccc43)c(=O)n2CCCC(=O)NC2CCCC2)c1 | -2% |
| O=C(Nc1cccc(O)c1)c1cccc(C(=O)Nc2cccc(O)c2)c1 | -4% |
| CCOc1ccc(-n2c(C)nc3cc(C(=O)NC4CCCC4)ccc32)cc1 | 0% |
| CN(C)CCCNC(=O)C(=O)NCC1CCCO1 (centres undefined) | -4% |
| NC[C@@H]1O[C@H](O[C@H]2[C@H](O)[C@@H](O[C@H]3[C@H](O)[C@H](N)C[C@H](N)[C@H]3O[C@@H]3O[C@H](CO)[C@@H](O)[C@H](O)[C@@H]3N)O[C@H]2CO)[C@@H](N)[C@H](O)[C@@H]1O | 0%[21.4 µM] |
| COC(=O)Nc1nncs1 | 2% |
| CS(=O)(=O)N(C(=O)NC(=O)NC12CC3CC(CC(C3)C1)C2)C1CCCCC1 | -2% |
| COc1ccc(C)cc1-n1nnnc1SCc1csc(C)n1 | -2% |
| COc1ccc2c(CC(=O)Nc3ccccc3OC)coc2c1 | -19% |
| COc1ncnc2c1oc1nc(CC(C)C)c3c(c12)CCCC3 | 1% |
| Cc1nc(CCNC(=O)CC2C(=O)NCCN2CC(C)C)nc2c1CCC2 (centres undefined) | -8% |
| CCOC(=O)c1ccccc1NC(=O)C=C(C)C | 3% |
| Nc1nnc(SCC(=O)Nc2cccc3ccccc23)s1 | -2% |
| CC(C(=O)NC(C)(C)C)N(C(=O)CS(=O)CC(=O)Nc1ccc(F)cc1)c1ccccc1F (centres undefined) | -6% |
| O=S(=O)(NC1CCCCC1Oc1ccccc1)c1ccccc1 (centres undefined) | -2% |
| O=C(CCN1C(=O)/C(=C/c2ccccc2)SC1=S)NNC(=O)c1ccncc1 | 4% |
| CC(C)N1CN=C(Nc2nc3ccccc3o2)NC1 | -8% |
| CCn1c(C(=O)Nc2ccsc2C(=O)OC)cc2sc(Cl)cc21 | -14% |
| N#Cc1ccc(NC(=O)Cn2cnc(S(=O)(=O)N3CCOCC3)c2)cc1 | -14% |
| O=C(CN(CC1CCCO1)C(=O)CNS(=O)(=O)c1ccc(Cl)cc1)NCC1CCCO1 (centres undefined) | -1% |
| CC(C)NC(=O)COC(=O)c1ccc(S(=O)(=O)N2CCCC2)cc1 | -3% |
| CSc1nc2ccsc2c(=O)n1-c1ccccc1 | -2% |

Structural class: those above with a thiophene ring, fused or not (7)
| mol | GCN5L2 inh |
| --- | --- |
| CCn1c(C(=O)NCCCN2CCc3ccccc3C2)cc2sccc21 | -19% |
| CCOc1ccc(N2C(=O)CC(NCCNc3ccc(C(=O)c4cccs4)cc3)C2=O)cc1 (centres undefined) | -17% |
| Cc1ccc(CNC(=O)CCC(=O)c2cccs2)cc1 | -6% |
| Cc1sc2nc(SCC(=O)O)[nH]c(=O)c2c1C | -4% |
| Cc1cccc(NC(=O)CSc2nc3c(sc4ccccc43)c(=O)n2CCCC(=O)NC2CCCC2)c1 | -2% |
| CCn1c(C(=O)Nc2ccsc2C(=O)OC)cc2sc(Cl)cc21 | -14% |
| CSc1nc2ccsc2c(=O)n1-c1ccccc1 | -2% |

Rewritten field by field: three of the compounds above
O=C(CCN1C(=O)/C(=C/c2ccccc2)SC1=S)NNC(=O)c1ccncc1
  GCN5L2 inh = 4%
CC(C)N1CN=C(Nc2nc3ccccc3o2)NC1
  GCN5L2 inh = -8%
CCn1c(C(=O)Nc2ccsc2C(=O)OC)cc2sc(Cl)cc21
  GCN5L2 inh = -14%

Some of the compounds tested; most or all hits stand in other tables.
